Source: PubChem BioAssay (National Center for Advancing Translational Sciences (NCATS))
GLA inh pH 4.5: qHTS Assay for Inhibitors of Human alpha-Galactosidase at pH 4.5; activity change, negative = inhibition, % at 105 µM; purified enzyme, 4-MU-alpha-Gal fluorescence, pH 4.5; 230,000 tested, under 10 active; Alpha-galactosidase A (Homo sapiens), P06280; inconclusive = small, poorly fitted or top-dose-only inhibition, or a rising curve; inactive = flat fitted curve, though single readings scatter; no compound was filed as active;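 also: 0% = full activity with enzyme and -100% = basal without enzyme; dose as in the result columns while the protocol names 77 µM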
Target sequence (P06280 whole entry, looked up): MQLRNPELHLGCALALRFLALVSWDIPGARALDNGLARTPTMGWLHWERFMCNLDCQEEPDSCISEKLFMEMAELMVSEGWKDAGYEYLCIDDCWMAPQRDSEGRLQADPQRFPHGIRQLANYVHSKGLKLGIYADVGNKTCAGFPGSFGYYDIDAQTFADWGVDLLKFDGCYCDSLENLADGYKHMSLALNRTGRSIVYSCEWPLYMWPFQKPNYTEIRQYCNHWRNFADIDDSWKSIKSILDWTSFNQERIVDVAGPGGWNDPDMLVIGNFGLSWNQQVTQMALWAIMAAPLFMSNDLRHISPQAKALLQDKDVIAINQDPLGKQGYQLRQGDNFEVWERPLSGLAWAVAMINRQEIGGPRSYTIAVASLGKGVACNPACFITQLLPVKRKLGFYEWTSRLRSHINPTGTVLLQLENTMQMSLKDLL
Rango release inh: qHTS Assay for Inhibitors of RanGTP induced Rango (Ran-regulated importin-beta cargo) - Importin beta complex dissociation; hit rate 0.071% among 340,000; Potency, µM (top dose mostly 46.1 µM), for inactives: at the highest dose activity change, negative = inhibition; Biochemical FRET Rango-importin beta, RanGTP-induced dissociation; AID 540253, 2011; Snurportin-1 (Homo sapiens) + GTP-binding nuclear protein Ran (Homo sapiens) + Importin …; active means falling FRET ratio curve, often poorly fitted, with flat reads before Ran was added; inconclusive means other falling curves, or compound fluorescence or quenching; inactive means flat or rising ratio curve;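 also: potency is read from the fitted curve at half-maximal effect; % of control where 0% means no effect; nearly all actives have a fitted effect of over 45% in size; -100% = wells without RanGTP and RCC1; the record marks most hits as doubtful in a second field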
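Rango (0.1 uM)–importin beta (0.25 uM) complex; RanGTP-RCC1 trigger; 45 min RT; CFP/YFP FRET read.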
Rango-impB inh: qHTS Assay for Inhibitors of Rango (Ran-regulated importin-beta cargo) - Importin beta complex formation | hit rate 0.031% among 340,000 | Rango CFP/YFP FRET sensor + importin beta, 45 min | Potency, µM (doses to about 92.2 µM), for the others: at the highest dose inhibition of complex formation; active = rising FRET ratio curve, often small or poorly fitted; inconclusive = mostly compound fluorescence or quenching in the first reads; inactive = flat curves in all reads;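 also: potency is read from the fitted curve at half-maximal effect; 0% = DMSO wells and 100% = buffer wells lacking importin beta; nearly all actives have a fitted effect of over 15% in size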
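FRET biosensor Rango (snurportin 1 IBB between N-terminal EYFP and C-terminal Cerulean), 50 nM in PBS/1 mM DTT/0.02% Tween-20/0.1% BSA, preincubated 5 min RT with compound; 0.125 microM importin beta added, 45 min RT, CFP/YFP FRET ratio read.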
miR-21 reporter: qHTS Assay for Modulators of miRNAs and/orActivators of miR-21. HeLa miR-21 FLuc reporter, luciferase, 48 h. Potency, µM (top dose mostly 38.3 µM), without a hit: at the highest dose reporter change, positive = more light. 340,000 tested, under 10 active. AID 2288, 2010; active = well fitted rising curve with a large enough effect; inconclusive = small, poorly fitted or top-dose-only effect; inactive = no such curve, though single readings can be large or run the other way;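 also: % of control where 0% means no effect; miR-21 action dims this reporter so a rising signal means less miR-21 action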
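HeLa cells endogenously expressing miR-21, stably carrying CMV-driven firefly luciferase with a downstream miR-21 binding site, 2000 cells/well. Titrations up to approximately 40 uM, 48 hours; luciferase luminescence read.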
* = called active by the depositor; ? = inconclusive; nt = not tested or not shown; [ ] = another dose, or the depositor's remark. These rows are one share of the data; the hit share may differ from the screen's.

molecule | GLA inh pH 4.5 | Rango release inh | Rango-impB inh | miR-21 reporter
Brc1ccc(CNCCCSc2ncccn2)cc1 | nt | 41% | -1.1% | -19%
O=C(N1CCOCC1)N(Cc1cccs1)C1CCCC1 | -1 | ? | -2.1% | -6%
O=c1c(/C=N/O)coc2ccc(Cl)cc12 | -2 | ? | 0.0% | 0%
CC(=O)Nc1ccc(S(=O)(=O)N(C)CC(=O)OCC(=O)N2CCN(C(=O)c3ccco3)CC2)cc1 | nt | -1% | -2.2% | nt
CCOC(=O)c1c(-c2ccc(C)o2)csc1NC(=O)CSc1nnc(C)s1 | -13 | -2% | -0.5% | -1%
COc1cccc(NC(=O)Cn2c(CCC(=O)O)ccc2-c2ccccc2)c1 | 5[21.1 µM] | 14% | ? | -5%
Cc1ccccc1NC(=O)c1cccc(S(=O)(=O)Nc2cccc(C(=O)O)c2)c1 | nt | -1% | ? | 7%
O=C(NCc1ccco1)c1cc2nc(-c3cccs3)cc(C(F)(F)F)n2n1 | -7 | ? | ? | -13%
CC(C)CCOc1ccc(C(=O)C[N+]2(C)CCOCC2)cc1 | -11 | -14% | 1.1% | -2%
CCOC(=O)c1csc(NC(=O)c2ccc(OC)c(OC)c2)n1 | -1 | -1% | -0.6% | 1%
COc1cc(OC)c(S(=O)(=O)Nc2ccccc2C(=O)O)cc1S(=O)(=O)Nc1ccccc1C(=O)O | nt | 12% | 2.4% | 1%
COc1ccc(N2C(=O)CC(N3CCN(c4ccc(S(C)(=O)=O)cc4)CC3)C2=O)cc1 (centres undefined) | 3 | 0% | -2.8% | 0%
COC(C(=O)N/N=C(\C)c1ccc(C(C)(C)C)cc1)c1ccccc1 (centres undefined) | nt | 0% | -2.1% | -12%
O=C(CSc1cc(Cl)ccc1Cl)NCCN1C(=O)CSC1=O | nt | -7% | 0.7% | nt
Cc1ccc(/C=N\NC(=O)c2cc(OCC(F)(F)F)ccc2OCC(F)(F)F)cc1 | -3 | 2% | 1.5% | -3%
Fc1ccc(CCNC(=S)Nc2ccc(F)cc2)cc1 | 3 | 4% | 0.0% | -19%
CC(C)(C)c1nc(SCC(=O)NCc2cccs2)c2ccccc2n1 | -12 | -27% | -2.9% | -3%
CC1(C)CC(=O)C=C(Nc2cccc(C(F)(F)F)c2)C1 | nt | 16% | 3.5% | nt
O=C(NCc1cccs1)c1ccccc1F | -2 | 1% | -0.1% | -16%
COc1ccccc1-c1cc(C(F)(F)F)nc(S(=O)(=O)CCCC(=O)N2CCOCC2)n1 | -2 | -3% | 5.8% | -7%
O=C(CN1CCN(c2ccccc2F)CC1)NC(=O)NCc1ccccc1 | -5 | 1% | 4.1% | -1%
COc1cccc(C(=O)Oc2ccccc2/C=C\C(=O)c2cc3ccccc3o2)c1 | 8 | 18% | 0.0% | -39%
CSc1ccc(CN(C)CC(=O)NCc2ccccc2)cc1 | 0 | 8% | 1.8% | 0%
O=C1NCCN(Cc2ccoc2)C1CC(=O)N(Cc1ccccc1)CC1CCC1 (centres undefined) | -26 | 6% | 3.7% | 0%
C=CCn1cn[nH]c1=S | 5 | 11% | -0.6% | -1%
O=C(CN1C(=O)c2ccc([N+](=O)[O-])cc2C1=O)NCc1ccco1 | 6 | 2% | -3.2% | -2%
CCOC(=O)c1sc2nc(CSc3ccccc3)[nH]c(=O)c2c1C | -6 | -16% | 3.0% | -6%
CCOC(=O)Nc1ccc(C)cc1C | 1 | 2% | 5.3% | 0%
C#CCOc1ccc(/C=C2\SC(=S)N(Cc3cccnc3)C2=O)cc1 | -3 | 18% | 3.7% | -1%
COc1ccc(C(=O)CSc2nc(C)cc(=O)[nH]2)cc1C | nt | 6% | -3.9% | -9%
O=C(Nc1cccc(-c2cccc(F)c2)c1)C1CCN(Cc2ccc(CO)o2)CC1 | nt | -5% | -1.2% | 24%
COc1nc(N)nc(N2CCOCC2)n1 | -6 | 2% | -1.1% | -9%
O=C(c1ccc(F)cc1)c1cc2ccc(O)cc2oc1=O | nt | ? | ? | -44%
CCN(Cc1ccccc1)C(=O)CN1C(=O)NC2(CC(C)CC(C)(C)C2)C1=O (centres undefined) | nt | 1% | -1.9% | 1%
COc1ccc(NC(=O)c2ccccc2)cc1 | nt | 0% | 2.7% | nt
Cn1[nH]c(-c2ccccc2)c(/C=N/O)c1=O | -2 | -3% | -1.0% | -2%
CC(=O)c1ccc(N2CCN(C(=O)/C=C/c3cccs3)CC2)cc1 | -2 | 5% | -0.6% | -8%
COc1ccc(CNS(=O)(=O)c2ccc(C3CNC(=O)C3)cc2)cc1 (centres undefined) | 2 | 4% | 4.7% | -4%
NC(=O)CSc1nnnn1-c1ccc(OC(F)(F)F)cc1 | -11 | 0% | -2.2% | -3%
CC1(C)Cc2ccccc2-c2nc(NCCCO)n(-c3ccccc3)c(=O)c21 | 19 | -10% | -1.5% | 0%
OC1(C#CCN2CCCC2)c2ccccc2-c2ccccc21 | 0 | -4% | 0.1% | -1%
CCn1cc(CN2CCCC(CO)(Cc3cccc(Cl)c3)C2)cn1 (centres undefined) | 1 | 2% | -2.6% | -1%
COc1ccc(C2/C=C\CN(C(=O)C3CCCC3)CC(=O)N2Cc2ccc(F)cc2)cc1 (centres undefined) | 0 | 5% | 1.9% | 2%
CC(OC(=O)CN1C(=O)C2C3C=CC(C4CC34)C2C1=O)C(=O)c1ccccc1 (centres undefined) | -1 | 1% | 7.1% | 4%
O=C(O)CCCN(Cc1cccc(Br)c1)S(=O)(=O)c1ccc(Br)cc1 | -12[21.1 µM] | 10% | 3.1% | 1%
O=C(NCCc1ccccc1)C(=O)NCc1ccncc1 | 2 | 0% | 2.1% | -11%
Fc1ccccc1CNC(=S)Nc1cccc(C(F)(F)F)c1 | 16 | -10% | -0.2% | 25%
Cc1cccc(C(=O)NCCc2ccccc2)c1 | nt | 14% | -0.3% | -38%
COc1ccc(/C=N/NC(=O)Nc2ccc3nsnc3c2)c(OC)c1 | 6 | 11% | 1.8% | -15%
COc1ccc(/C=C/C(=O)Nc2ccc(S(=O)(=O)N3CCOCC3)cc2)c(OC)c1 | nt | 1% | 0.1% | nt
COC(=O)c1cc(CC(=O)c2ccc(O)cc2O)c(C)o1 | 3 | -1% | 0.2% | -12%
O=S(=O)(c1ccc(Cl)cc1)N1CCN(c2ccccn2)CC1 | nt | 1% | 0.4% | -2%
Cc1sc2nc(SCC(=O)N3CC(C)OC(C)C3)n(C)c(=O)c2c1C (centres undefined) | nt | 7% | -4.6% | 0%
O=C(O)CCc1ccc(-c2ccc(F)cc2)n1CC(=O)O | -1 | -10% | 5.1% | -4%
CCCOc1ccc(-c2cnc(N)s2)cc1 | 2 | ? | -0.4% | -57%
O=C(NCc1ccccc1)C1CCCN(C(=O)NCc2ccccc2)C1 (centres undefined) | nt | -13% | -0.1% | -11%
O=C(O)c1cccnc1Sc1ccc(Cl)cc1 | 3 | 30% | 2.8% | -2%
CCOc1ccc(-c2cc(C(=O)N/N=C/c3cccnc3)c3ccccc3n2)cc1 | nt | 13% | -2.3% | 6%
COc1cc(C)c(S(=O)(=O)N2CCCC2)cc1C | -4 | -3% | 5.1% | 1%
CCn1cc(C(=O)N2CCN(c3cccc(Cl)c3)CC2)c2cc(OC)c(OC)cc2c1=O | -6 | -1% | -1.8% | ?

(next part)
molecule | GLA inh pH 4.5 | Rango release inh | Rango-impB inh | miR-21 reporter
CC(C)CC1c2[nH]c3ccccc3c2CCN1C(=O)C1CCOCC1 (centres undefined) | -4 | ? | ? | 1%
Cc1cc(C)c(S(=O)(=O)N(CC(=O)NCc2cccnc2)C2CCCCC2)c(C)c1 | -6 | -4% | 0.0% | 9%
CCOC(=O)c1cn(-c2c(Cl)cccc2Cl)c2cc(Cl)c([N+](=O)[O-])cc2c1=O | 8 | -6% | -0.3% | -8%
CS(=O)(=O)N(CC(=O)N1CCC(C(N)=O)CC1)Cc1ccc(Cl)c(Cl)c1 | nt | 8% | -0.8% | 0%
CCOC(=O)c1cnc(SC)nc1Oc1cccc(NS(=O)(=O)c2ccccc2)c1 | -4 | -11% | 0.1% | -4%
O=C(c1ccco1)N1CCN(C(=O)N2CCCCC2)CC1 | 2 | 22% | -2.2% | -5%
Cc1nnc(SCCn2c(N3CC(C)CC(C)C3)nc3c2c(=O)[nH]c(=O)n3C)s1 (centres undefined) | 6 | -3% | -0.9% | -7%
CCN1C(=O)/C(=C/N2CCc3ccccc3C2)SC1=S | -9 | -6% | -1.1% | -18%
COc1ccc(-c2nc(CN3CCC(C(=O)N4CCOCC4)CC3)c(C)o2)cc1C | nt | -2% | -1.4% | -12%
COc1ccc(-c2nn(-c3ccccc3)cc2/C=C(\C#N)S(=O)(=O)c2ccccc2)cc1OC | -6 | -14% | 1.8% | 3%
CCN(CC(=O)Nc1ccc(Br)c(C)c1)CC(=O)NC(C)C | 9 | -1% | 3.8% | -9%
O=C(Nc1cccc2ccccc12)OCc1ccccc1 | nt | -10% | -0.6% | nt
CCOC(=O)C1CCN(C(=O)N(C)C)CC1 | -2 | 1% | 1.3% | 0%
COc1ccc(CCC(C)Nc2ccccc2F)cc1 (centres undefined) | -7 | 0% | 3.1% | 0%
O=C(O/C(=C/c1ccccc1)C(F)(F)F)c1ccccc1 | nt | 11% | 8.4% | nt
CC(=O)Nc1ccc(NC(=O)C2CCC(N3C(=O)C4C5C=CC(C6CC56)C4C3=O)CC2)cc1 (centres undefined) | nt | -4% | -1.8% | -1%
CC12CCC(C(=O)Nc3cccc4ccccc34)(C1Br)C2(C)C (centres undefined) | 2 | 2% | 0.0% | 9%
CNC(=O)c1c(NC(=O)CCS(=O)(=O)c2ccc(C)cc2)sc2c1CCN(C(=O)OC)C2 | nt | -27% | ? | nt
O=C(c1ccc(F)cc1Cl)N(Cc1ccco1)C1CCS(=O)(=O)C1 (centres undefined) | nt | 11% | 3.0% | nt
Cc1cc(NS(=O)(=O)c2ccc(NC(=O)C(C)Oc3ccccc3Cl)cc2)no1 (centres undefined) | nt | -9% | 0.1% | nt
O=C(NC(=S)Nc1ccccc1O)c1ccccc1Cl | 1 | 11% | 1.0% | -40%
COc1ccccc1N1CCN(Cc2nc(N)nc(Nc3ccccc3)n2)CC1 | 12 | 0% | 2.3% | -3%
CN(CC(=O)Nc1ccc2c(c1)OCCO2)Cc1nc2ccccc2c(=O)[nH]1 | nt | -12% | 0.3% | nt
CN(C)c1ccc(N=Nc2ccccc2C(=O)OCC(=O)NCC2CCCCC2)cc1 | 0 | 18% | -0.6% | -29%
CN(CC(=O)Nc1ccc(Cl)c(Cl)c1)Cc1nnc(-c2ccc(F)cc2)o1 | -8 | -1% | -3.5% | -9%
CCCC1(CCC)NC(=O)N(CC(=O)N2CCc3ccccc32)C1=O | nt | 3% | 0.8% | nt
Cc1[nH]n(-c2cccc(Cl)c2)c(=O)c1-c1ccccc1 | -4 | 19% | 1.5% | -10%
COc1ccc(-c2c[n+](CC(=O)OC3CC(C)CCC3C(C)C)c3n2CCC3)cc1 (centres undefined) | nt | -15% | 1.5% | ?
O=C(NC(Cc1ccccc1)C(=O)O)/C(=C/c1ccc([N+](=O)[O-])cc1)NC(=O)c1ccc(Br)o1 (centres undefined) | nt | ? | ? | 9%
O=C(Nc1c(-c2ccccc2)nc2ncccn12)c1cc2ccccc2oc1=O | 2 | 14% | -6.3% | -14%
CCCCn1c(SCC(=O)Nc2sc3c(c2C(N)=O)CCC3)nnc1-c1ccccc1 | nt | ? | ? | nt
O=C(NC1CC1)c1ccc2c(c1)C1C3CCC(C3)C1C(c1ccccc1)N2 (centres undefined) | -9 | -4% | -5.9% | 4%
COc1ccc(C2=C(c3ccc(OC)c(OC)c3)CN3CCCCC3C2)cc1 (centres undefined) | nt | 10% | -2.0% | nt

Whole records as entered above:
Profile of `CN(CC(=O)Nc1ccc(Cl)c(Cl)c1)Cc1nnc(-c2ccc(F)cc2)o1` : GLA inh pH 4.5 = -8; Rango release inh = -1%; Rango-impB inh = -3.5%; miR-21 reporter = -9%
Profile of `O=C(Nc1c(-c2ccccc2)nc2ncccn12)c1cc2ccccc2oc1=O` : GLA inh pH 4.5 = 2; Rango release inh = 14%; Rango-impB inh = -6.3%; miR-21 reporter = -14%
